Mtb bLac sens: beta-lactam sensitization of Mtb H37Rv | inhibition, % at 25 µM | M. tuberculosis H37Rv growth with meropenem, percent inhibition; hits of this screen are not shown here | hit rate 0.27% among 330,000;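 active = about 74% or more and at least 40 points above the plate without the antibiotic, then above 30% in a dose series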;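 also: growth measured after seven days incubation then overnight dye step; 0% = bacteria only wells and 100% = bacteria with antibiotic; twin plates without the antibiotic show which effects depend on it; some results filed as inactive read as strong as hits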
* marks the source's active call; other numbers are inactive results.

no.	SMILES	Mtb bLac sens
1	CC(=O)Nc1ccc(C(=O)OCC(=O)Nc2c(C)n(C)n(-c3ccccc3)c2=O)cc1	4.6
2	O=C(CN1C(=O)NC(CCc2ccccc2)C1=O)Nc1ccccc1C(F)(F)F (stereo not given)	4.1
3	Cc1c(C(=O)N2CCOCC2)oc2ccccc12	-7.0
4	Cc1ccc(NC(=O)CN(C)C(=O)c2cc(-c3cccs3)nn2-c2ccccc2)cc1	-3.7
5	CC(=O)c1cccc(NC(=O)c2cc(=O)c3ccccc3o2)c1	-1.5
6	O=C(CCNC(=O)c1ccco1)Nc1ccc(OC(F)F)c(Cl)c1	74.2
7	Cc1cc(C)cc(C(=O)NCC(=O)OCC(=O)NC2CCCc3ccccc32)c1 (stereo not given)	4.4
8	O=C(CN1c2cccc3cccc(c23)S1(=O)=O)Nc1ccc(F)c(F)c1F	1.1
9	CSCCC(NC(=O)COc1ccccc1)C(=O)OCCOc1ccc(C)cc1 (stereo not given)	58.7
10	C[C@H](CO)N1C[C@H](C)[C@@H](CN(C)Cc2ccccc2)Oc2c(NS(=O)(=O)c3ccccc3)cccc2C1=O	-7.9
11	COc1ccccc1CNC(=O)CN1C(=O)NC(c2ccccc2)(c2ccccc2)C1=O	7.7
12	COc1ccc(C(=O)Nc2ccc(N3CCN(C)CC3)cc2)cc1OC	-12.0
13	Cc1ccc(NC(=O)COC(=O)Cn2nc(-c3ccc(F)cc3)oc2=O)cc1C	-4.6
14	Cc1nc(SCC(=O)NCc2ccc3c(c2)OCO3)nc(C)c1C	2.9
15	CCn1nnnc1SCC(=O)N1CCN(Cc2ccc3c(c2)OCCO3)CC1	0.5
16	CN(CC(=O)Nc1ccc(F)cc1)C(=O)Cn1cnc2ccc([N+](=O)[O-])cc2c1=O	-4.1
17	COc1cccc(NC(=O)CN(C)C(=O)CCCNC(=O)c2ccc(Cl)cc2)c1	1.7
18	COc1ccc([C@H]2CC(=O)C=C(/C=C/c3ccccc3)C2)cc1OC	91.2
19	CCOC(=O)C1=C(COC(=O)CCOc2cc(C)ccc2C)NC(=O)NC1C (stereo not given)	-3.0
20	Cc1cccc(C)c1NC(=O)CN(C)C(C)C(=O)NCC(=O)Nc1ccc(F)c(F)c1F (stereo not given)	-1.4
21	CCc1nnc(NC(=O)C2CCCN(C(=O)c3ccc(Cl)cc3)C2)s1 (stereo not given)	4.0
22	Cc1noc(C)c1C(=O)OCC(=O)Nc1ncc(Cl)c(C)c1Cl	-8.4
23	Cc1csc(=O)n1CC(=O)OCC(=O)NNC(=O)c1ccc(Cl)cc1	0.0
24	Cn1ccc2ccc(C3=CC(=O)C[C@H](c4ccc(F)cc4)C3)cc21	15.4
25	COc1ccc([C@H]2CC(=O)C=C(c3ccc4[nH]ccc4c3)C2)cc1OC	74.4
26	C=CCc1ccc(OC)cc1	-7.6
27	O=C1CCC/C=C\C[C@@H](CC(=O)N(CCO)Cc2ccccc2)C(=O)N[C@H](Cc2c[nH]c3ccccc23)CO1	0.8
28	CCCCn1c(N)c(N(C)C(=O)c2ccccc2Oc2ccccc2)c(=O)[nH]c1=O	-4.7
29	NC(=O)NC(=O)C(c1ccccc1)N1CCN(S(=O)(=O)Cc2ccccc2)CC1 (stereo not given)	2.5
30	CCOc1ncccc1C(=O)N(CCC(C)C)c1c(N)n(Cc2ccccc2)c(=O)[nH]c1=O	-9.6
31	N#Cc1ccc(CN2CCN(C(=O)CCNS(=O)(=O)c3ccc(F)c(Cl)c3)CC2)cc1	2.4
32	N#Cc1ccccc1OCC(=O)OCC(=O)NC1CCS(=O)(=O)C1 (stereo not given)	1.4
33	O=C(COC(=O)c1cccc(C(F)(F)F)c1)NC(=O)NC1CCCC1	-5.6
34	CCOc1ccc(NC(=O)CN(C)C(=O)CCN2C(=O)C3CC=CCC3C2=O)cc1OCC (stereo not given)	0.5
35	O=C(COC(=O)c1ccc(O)cc1)NCC1COc2ccccc2O1 (stereo not given)	0.8
36	COc1ccc(Cn2c(=O)[nH]c3cc(C(=O)N4CCN(c5ccccc5F)CC4)ccc3c2=O)cc1	92.1
37	COc1cc2cc(CCOC(=O)c3ccc(C#N)cc3)oc(=O)c2cc1OC	2.9
38	C[C@H](CO)N1C[C@H](C)[C@H](CN(C)S(=O)(=O)c2ccccc2)Oc2ccc(NC(=O)NC3CCCCC3)cc2CC1=O	9.8
39	COc1ccc(-c2oc(=O)c3cc(OC)c(OC)cc3c2C#CCCO)cc1	12.6
40	CCCCCCCC(=O)C(C)C(=O)N(C)[C@H](Cc1ccc(OC)cc1)C(=O)N(C)[C@H](C(N)=O)C(C)C (stereo not given in full)	-5.0
41	NS(=O)(=O)c1ccc(N2CCN(C(=O)c3ccco3)CC2)nc1	-7.5
42	COc1cccc(/C=N/NC(=O)N/N=C/c2cccc(OC)c2O)c1O	5.1
43	CC(C)(C)N(Cc1ccccc1)C(=O)COC(=O)c1ccc2ccccc2n1	37.8
44	CCCN(C(=O)c1nc2nccc(C)n2n1)c1c(N)n(Cc2ccccc2)c(=O)[nH]c1=O	2.4
45	COc1ccccc1OCC(=O)Nc1cc2c(cc1C(=O)O)OCCCO2	-2.7
46	COC(=O)c1ccc(COC(=O)C2CCN(S(=O)(=O)c3ccccc3C(=O)OC)CC2)cc1	6.5
47	CCOc1ccc(S(=O)(=O)/N=C(/Nc2ccc(C(C)=O)cc2)c2ccccc2)cc1	-2.9
48	COc1ccc(-c2cc(C(=O)NCCCN3CCCC3=O)c3ccccc3n2)cc1OC	3.1
49	COc1cccc(C(=O)/C=C/Nc2ccc(S(=O)(=O)Nc3cc(OC)nc(OC)n3)cc2)c1	8.6
50	Cc1ccc(S(=O)(=O)N2CCN(C(=O)CCC(=O)Nc3ccc(F)cc3F)CC2)cc1	-5.8
51	CC(C)N1C(=O)C(=O)N(CC(=O)N2CCc3ccccc32)C1=O	-0.3
52	CC(C(=O)N1CCc2ccccc21)N(C)CC(=O)Nc1cccc(F)c1 (stereo not given)	0.0
53	Cc1ccc(NC(=O)CSc2nc3ccccc3c(=O)[nH]2)cc1[N+](=O)[O-]	1.1
54	O=C(NCCCn1ccnc1)c1ccc(-c2cccc(Cl)c2Cl)o1	55.2
55	Cc1ccc(CNCc2cc(Cl)ccc2O)cc1	-2.7
56	Cc1ccc(OC[C@H](O)[C@H](C)NC(C)C)c2c1CCC2	-6.3
57	Cc1cc(C)cc(NC(=O)CSc2nc3nc(C)cc(C)c3c(=O)[nH]2)c1	-6.1
58	Cc1cnc(NC(=O)Cc2ccc(S(=O)(=O)N3CCOCC3)s2)s1	-10.1
59	O=C1C(SCCO)=C(SCCO)C(=O)c2ccccc21	100.4
60	CC(C)Cn1c(N)c(C(=O)CSc2nncs2)c(=O)n(C)c1=O	1.9

Fetched one by one from the list above:
no.	SMILES	Mtb bLac sens
50	Cc1ccc(S(=O)(=O)N2CCN(C(=O)CCC(=O)Nc3ccc(F)cc3F)CC2)cc1	-5.8
46	COC(=O)c1ccc(COC(=O)C2CCN(S(=O)(=O)c3ccccc3C(=O)OC)CC2)cc1	6.5
47	CCOc1ccc(S(=O)(=O)/N=C(/Nc2ccc(C(C)=O)cc2)c2ccccc2)cc1	-2.9
31	N#Cc1ccc(CN2CCN(C(=O)CCNS(=O)(=O)c3ccc(F)c(Cl)c3)CC2)cc1	2.4
36	COc1ccc(Cn2c(=O)[nH]c3cc(C(=O)N4CCN(c5ccccc5F)CC4)ccc3c2=O)cc1	92.1

The results go on:
no.	SMILES	Mtb bLac sens
61	O=C(COc1ccc2c(-c3ccccc3)cc(=O)oc2c1)NC(Cc1c[nH]c2ccccc12)C(=O)O (stereo not given)	-10.0
62	C[C@@H]1COC(=O)[C@@H](CC(=O)OC(C)(C)C)C/C=C\C[C@@H](CC(=O)N[C@@H](CO)Cc2ccccc2)C(=O)N1	0.2
63	COCCN(C(=O)C1CCN(C(=O)c2ccccc2C)CC1)c1c(N)n(CC(C)C)c(=O)[nH]c1=O	-2.3
64	CCOC(=O)N1CCN(C(=S)NC(=O)c2cccc(OC)c2)CC1	3.8
65	O=C(COC(=O)c1cc(=O)[nH]c2ccccc12)NCc1ccccc1Cl	-8.7
66	CN(Cc1ccccc1)C(=O)c1ncn(C)c1C(=O)N(C)Cc1ccccc1	1.1
67	CCOc1ccc(CN(C)C(=O)NNC(=O)c2ccc(C)cc2)cc1OC	6.7
68	Cc1ccc(CNC(=O)Cn2ccc(NC(=O)OCc3ccccc3)nc2=O)o1	-3.9
69	CCN(CC(=O)Nc1ccc2c(c1)OCCO2)C(=O)/C=C/c1ccc([N+](=O)[O-])cc1	-9.2
70	CCOC(=O)[C@H]1[C@H]2COc3ccc(Cl)cc3[C@@H]2N2C(=O)c3ccc(Cl)cc3NC(=O)[C@@]12C	78.1
71	COc1ccc(C(=O)COC(=O)c2ccc3c(c2)OCO3)c(OC)c1	5.0
72	O=C(Nc1ccc(SC(F)F)cc1)c1ccc2c(=O)n3c(nc2c1)CCC3	8.6
73	Cc1ccc(-c2nn(-c3ccccc3)cc2C(=O)N2CCN(C3CCS(=O)(=O)C3)CC2)cc1 (stereo not given)	-5.8
74	CCN1C(=NCCCOC(C)C)N[C@@H](CCc2ccccc2)[C@H](C(=O)NCCCOC(C)C)[C@H]1C	1.0
75	CCN1C[C@@H]2[C@@H]3C(=O)N(Cc4ccccc4)C(=O)[C@@H]3[C@](CC)(C1=O)N2C(=O)c1ccc(C(F)(F)F)cc1	-0.1
76	COc1cc(C(=O)OCc2cccc(S(=O)(=O)N3CCOCC3)c2)ccc1OCC(C)C	6.8
77	O=C(Nc1cccc(S(=O)(=O)N2CCOCC2)c1)c1cc(=O)[nH]c2ccccc12	-0.2
78	NS(=O)(=O)c1ccc(NC(=O)c2ccc(OCC3CCCO3)cc2)cc1 (stereo not given)	-2.6
79	C[C@]1(OC(=O)/C=C/c2ccccc2)C[C@@H](O)[C@]2(O)C=CO[C@@H](O[C@@H]3O[C@H](CO)[C@@H](O)[C@H](O)[C@H]3O)[C@@H]21	2.9
80	CCOC(=O)C1=C(COC(=O)Cc2ccc(Cl)cc2)NC(=O)NC1C (stereo not given)	-6.2
81	O=C1CCC(=O)N1c1ccccc1OS(=O)(=O)c1ccccc1	-1.4
82	O=C(CN1CCN(S(=O)(=O)c2cccc(Br)c2)CC1)NCCc1cccs1	-1.0
83	O=C(COC(=O)c1ccc(F)c(S(=O)(=O)N2CCOCC2)c1)NCc1ccc(F)cc1	-7.0
84	CCCNC(=O)C(Cc1ccccc1)NC(=O)c1cccc([N+](=O)[O-])c1 (stereo not given)	-3.7
85	COc1cc(C(=O)NCC(=O)Nc2c(C)cccc2C)ccc1OCC(=O)N1CCOCC1	-10.3
86	Cc1noc(C)c1CSCC(=O)Nc1ccc(S(C)(=O)=O)cc1	-0.3
87	Cc1ccc(NS(=O)(=O)c2ccc(C)c(NC(=S)NCCN3CCOCC3)c2)c(C)c1	-9.0
88	Cc1ccc(S(=O)(=O)N(C)N=O)cc1	4.7
89	CN(C(=O)Cn1nc(C(=O)O)c2ccccc2c1=O)C1(C#N)CCCCC1	-5.9
90	COc1ccc(-c2cn(CCO)c(-c3ccncc3)n2)cc1	1.0
91	CC(C)OCCCNC(=O)c1cccc2c1C(=O)c1ccc(Cl)cc1S2(=O)=O	-4.2
92	CCOC(=O)CCCCCC(=O)Nc1ccc2c(c1)C(=O)N([C@H](C)CO)C[C@@H](C)[C@H](CN(C)Cc1ccc3c(c1)OCO3)O2	-0.3
93	COc1ccc(NS(=O)(=O)c2cc(N=Nc3c(O)[nH]c(=O)[nH]c3=O)ccc2Cl)cc1	2.7
94	CC(NC(=O)/C(C#N)=C/c1ccc(OCC(=O)O)cc1)c1ccccc1 (stereo not given)	-3.5
95	Cc1cc(F)ccc1NC(=O)CCc1ccc(S(=O)(=O)N2CCOCC2)cc1	99.3
96	O=S(=O)(c1cccc(Cl)c1)N1CCN(S(=O)(=O)c2ccc3c(c2)OCCO3)CC1	-3.2
97	O=C1OC(=O)c2cc([N+](=O)[O-])ccc21	3.6
98	O=C(c1cc(Cl)ccc1O)N1CCN(S(=O)(=O)Cc2ccccc2)CC1	1.3
99	COc1ccc(NS(=O)(=O)c2ccc(Cl)c(NC(=O)c3ccccc3F)c2)cc1	-2.8
100	CCOc1cc(/C=C(/C#N)C(=O)Nc2ccc(OC)cc2)ccc1OCc1ccc(C(=O)O)cc1	5.2
101	CC(C)(C)c1ccc(NC(=O)CN2C(=O)NC(C)(C3CC3)C2=O)cc1 (stereo not given)	0.3
102	COc1ccc(NC(=O)N(C)C[C@H]2Oc3c(NC(=O)c4ccncc4)cccc3C(=O)N([C@H](C)CO)C[C@@H]2C)cc1	6.5
103	CC(=O)C[C@@H](O)CC(=O)[C@H]1OC(=O)CC/C=C\Cc2ccccc21	2.6
104	CCCc1cc(=O)oc2cc(C)cc(OCC(=O)N3CCC(C(N)=O)CC3)c12	-4.3
105	CC1CCN(C(=O)c2[nH]cnc2C(=O)N[C@H](C)c2ccccc2)CC1	11.3
106	CCN(Cc1ccccc1)C(=O)COC(=O)c1c(C)nsc1NC	-12.1
107	CCS(=O)(=O)N(CC(=O)Nc1cccc2ccccc12)c1ccc(OC)cc1	17.0
108	COc1ccc(NC(=O)Nc2cccc3c2O[C@@H](CN(C)S(=O)(=O)c2cn(C)cn2)[C@@H](C)CN([C@H](C)CO)C3=O)cc1	-2.1
109	COC(=O)CCC(=O)OC	-6.0
110	CCC1CCCCN1C(=O)CSc1nnc2nc(C)cc(C)n12 (stereo not given)	0.8
111	CCc1nnc(SCC(=O)Nc2ccc3ccccc3c2)n1N	-4.8
112	C#CCOCCOCCOCCNc1nc(N2CCN(C(=O)CCCCCCCCCCNC(=O)[C@H]([C@@H](C)CC)n3cc(CCCCCN)nn3)CC2)nc(N2CCN(C(=O)CCCCCCCCCCNC(=O)[C@@H]([C@H](C)CC)n3cc(CCCCCN)nn3)CC2)n1	-13.9
113	Cc1csc(SCC(=O)NC2CCCC2)n1	3.9
114	O=C(CSc1n[nH]c(-c2ccc(Br)cc2)n1)N1CCOCC1	-1.8
115	O=C(CCCOc1ccccc1)Nc1cccc(S(=O)(=O)N2CCCCC2)c1	-5.4
116	CC(C)NC(=O)CN1C(=O)C(C)(C)Oc2ccc(C(=O)NC3CCCCC3)cc21	-9.2

Assay outcomes from PubChem.

Only part of the results is shown (hit frequency here may not be typical).
